StopGo reporter = High Throughput Screening for Foot and Mouth Disease Virus Antivirals; 410,000 compounds, 1.2% hits; human cells with a luciferase reporter of 2A StopGo recoding; control for the full effect not named in the record; Potency, µM (top dose mostly 57.9 µM), for the others: at the highest dose signal change, negative = less light; active = well fitted falling curve with a large enough effect; inconclusive = small, poorly fitted or top-dose-only effect; inactive = no such curve, though single readings can be large or run the other way; tested in HEK293T cells; also: % is scaled to controls: 0 for no effect and ±100 for the full control effect; nearly all actives have a fitted effect of over 45% in size; luciferase light after 4 h
RE007 growth inh = qHTS Assay for Inhibitors of the HIV-1 protein Vpr; S. pombe RE007 Vpr strain, BacTiter-Glo ATP luminescence, 24 h; control for the full effect not named in the record; Potency, µM (doses to about 92.2 µM), for inactives: at the highest dose activity change, negative = less growth; 360,000 compounds, 0.21% hits; AID 651644, 2012; active = well fitted falling curve with a large enough effect; inconclusive = small, poorly fitted or top-dose-only effect; inactive = no such curve, though single readings can be large or run the other way;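 also: % is scaled to controls: 0 for no effect and ±100 for the full control effect; nearly all actives have a fitted effect of over 50% in size; the assay follows cell death caused by Vpr and the record does not say whether a fall means rescue or toxicity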
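Fission yeast RE007 carrying one integrated HIV-1 vpr copy, seeded at OD 0.01 in PMG+AL medium with 23 nL pinned compound. Grown 24 h at 30 degrees; viability read by BacTiter-Glo luminescence after 5 min.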
SARS PLpro yeast = qHTS of Yeast-based Assay for SARS-CoV PLP. AID 485353, 2010. S. cerevisiae expressing SARS-CoV PLpro, growth rescue; control for the full effect not named in the record. Potency, µM (top dose mostly 32.9 µM), inactives show at the highest dose activity, positive = growth rescue. 330,000 compounds, 0.19% hits; active means well fitted rising curve with a large enough effect; inconclusive means small, poorly fitted or top-dose-only effect; inactive means no such curve, though single readings can be large or run the other way; also: 0% is about no effect; nearly all actives have a fitted effect of over 55% in size; growth read by luminescence after 48 h
An asterisk follows results filed as active; ? = inconclusive; [ ] = remark or other dose. Potency is read from the fitted curve at half-maximal effect.

smiles | StopGo reporter | RE007 growth inh | SARS PLpro yeast
CCCCNC(=O)Nc1c(C)cc(SC#N)cc1C | -8% | 2% | 23%
Cc1cccc(Nc2ccc(S(=O)(=O)N3CCOCC3)cc2[N+](=O)[O-])c1 | -24% | -5% | -2%
CCN(CC)C(=O)c1nc[nH]c1C(=O)N1CCN(C(=O)OC(C)(C)C)CC1 | -13% | 5% | -10%
CC(Sc1nnc(CN2CCCC2)n1Cc1ccccc1)C(=O)Nc1ccccc1 (stereo not drawn) | 10% | 1% | -13%
CCN1C(=O)[C@H]2[C@@H](c3ccc(-c4cccc(Cl)c4)c(OC)c3)N[C@@](C)(C(=O)OC)[C@H]2C1=O | 0% | -6% | 2%
CCOC(=O)[C@@H]1[C@H]2COc3cc(OC)ccc3[C@H]2N2C(=O)N(c3ccc(C(F)(F)F)cc3)C(=O)[C@]12C | ? | ? | 7%
COC(=O)C1=C(c2ccc(OC(F)(F)F)cc2)C[C@@H]2CC[C@H]1N2C(=O)N1CCCC1 | ? | 9% | 3%
CCOC(=O)c1nnn(-c2nonc2N)c1-c1ccc(Cl)cc1 | -23% | 21% | 0%
COc1ccc(CC(NC(C)=O)C(=O)NC2CCN(c3nc(C)cc(C)c3C#N)CC2)cc1OC (stereo not drawn) | -25% | 23% | 3%
C[C@H]1CN([C@@H](C)CO)C(=O)c2cccc(NC(=O)c3ccc(-c4nccs4)cc3)c2O[C@@H]1CN(C)C(=O)NC1CCCCC1 | -12% | -21% | 4%
COc1ccc2c(c1)[C@H]1[C@H](CO2)[C@H](c2ccccc2)[C@]2(C)C(=O)Nc3ccc(F)cc3C(=O)N12 | ? | 0% | 1%
CC(=O)Nc1cc(NC(C)=O)cc(C(=O)OCC(=O)N(c2ccccc2)C2CCS(=O)(=O)C2)c1 (stereo not drawn) | -2% | 2% | 1%
Cc1nc2ccccc2c(=O)n1N(c1ccccc1)c1ccccc1 | -18% | 6% | -1%
COC(=O)[C@@]1(Cc2ccccc2)[C@H]2C(=O)N(C)C(=O)[C@H]2[C@H]2CN=C(SCc3ccc(Cl)cc3)N21 | 0% | -4% | 7%
C=CCn1c(SCC(=O)Nc2c(C)n(C)n(-c3ccccc3)c2=O)nc2ccccc2c1=O | -6% | 1% | -2%

In the list so far, these contain an aryl thioether with sulfur outside any ring:
smiles | StopGo reporter | RE007 growth inh | SARS PLpro yeast
CC(Sc1nnc(CN2CCCC2)n1Cc1ccccc1)C(=O)Nc1ccccc1 (stereo not drawn) | 10% | 1% | -13%
C=CCn1c(SCC(=O)Nc2c(C)n(C)n(-c3ccccc3)c2=O)nc2ccccc2c1=O | -6% | 1% | -2%

(listing goes on)
smiles | StopGo reporter | RE007 growth inh | SARS PLpro yeast
Cc1cc(N/N=C2\CC(C)CC(C)(C)C2)nc2ccccc12 (stereo not drawn) | -25% | 6% | -1%
Cc1nn(-c2ccccc2)c2[nH]c(=O)cc(C(F)F)c12 | 52%[activator] | -11% | -6%
CCCCOc1ccccc1-c1ccccc1CN1[C@@H](C(C)C)COCCS1(=O)=O | ? | 2% | -49%
CCN1C(=O)[C@H]2[C@H]3CN=C(SCC4CC4)N3[C@@](CC)(C(=O)OC)[C@H]2C1=O | 3% | -15% | 4%
O=C1N[C@@H](c2ccccc2)COC(=O)[C@@H](Cc2ccc(F)cc2)CC/C=C/C[C@H]1CC(=O)N(CCO)Cc1ccccc1 | -21% | 8% | 5%
CC[C@@]1(C(=O)OC)N[C@H](CN(C)S(=O)(=O)c2ccc(-c3ccccc3)cc2)[C@@H]2C(=O)N(C)C(=O)[C@@H]21 | -19% | -5% | 1%
CC(C)=CCC/C(C)=C/CNC(=O)C[C@H]1C[C@H](C(=O)N(C(C)C)C(C)C)[C@@]2(C)c3[nH]c4cc(CCC(=O)N(C)C)ccc4c3CCN2C1=O | ? | 38% | -1%
COc1ccc(CCNC(=O)CN2C(=O)NC(CCSC)C2=O)cc1 (stereo not drawn) | -7% | 2% | 4%
CC[C@@H]1C=C(C(=O)O)[C@H](c2ccc(C)cc2)N1S(=O)(=O)c1ccc(C)cc1 | 3% | 0% | -1%
C[C@H]1COC(=O)[C@H](CC(=O)OC(C)(C)C)C/C=C\C[C@@H](CC(=O)N(CCO)Cc2ccccc2)C(=O)N1 | 32%[activator] | 9% | 0%
C[C@@H](NC(=O)c1[nH]cnc1C(=O)Nc1ccc(Cl)cc1)c1ccccc1 | -4% | 3% | -5%
CCOC(=O)C1CCCN(C(=O)CNC(=O)c2ccc(Br)o2)C1 (stereo not drawn) | -19% | -22% | -2%
CCC[C@@H](CN1CCC[C@H]1CN1C(N)=NC[C@H]1C(C)C)N1C[C@@H]([C@H](C)CC)N(CCCC2CCCC2)C1=N | -1% | 11% | 1%
NCCCn1c(C(=O)c2ccc(Cl)cc2)c2ccc([N+](=O)[O-])cc2[n+]1[O-] | -9% | -19% | 3%
CC(C)c1onc(C(=O)NC(C)c2ccccc2)c1[N+](=O)[O-] (stereo not drawn) | 3% | 12% | ?

Going on with the list.
smiles | StopGo reporter | RE007 growth inh | SARS PLpro yeast
COc1ccccc1C(C)NC(=O)CCNC(=O)c1ccc(Cl)cc1 (stereo not drawn) | -19% | 1% | -2%
COC(=O)C1OC(OC2CC[C@]3(C)C(CC[C@@]4(C)[C@@H]3CC=C3[C@@H]5CC(C)(C)CC[C@]5(C(=O)OC5OC(CO)C(O)C(O)C5O)CC[C@]34C)C2(C)C)C(O)C(O)C1O[C@H]1OCC(O)C(O)C1O (stereo partly drawn) | -26% | 11% | 1%
Cc1ccc(S(=O)(=O)N2CCC(C(=O)OCC(=O)NCc3cccc(Cl)c3)CC2)cc1C | -1% | 11% | -1%
Cc1ccc(/C=C/C(=O)OCC(=O)Nc2cccnc2Cl)cc1 | 16% | -8% | -4%
COc1ccc(NC(=O)CN(Cc2ccco2)Cc2ccco2)cc1S(=O)(=O)N1CCCCC1 | -26% | 6% | 4%
COc1ccc(Cn2c(=O)[nH]c3cc(C(=O)NC4CCCC4)ccc3c2=O)cc1 | ? | 3% | 0%
COc1ccc(C(=O)Nc2ccc(NC(C)=O)cc2)cc1S(=O)(=O)N1CCCC1 | 1% | -9% | 3%
Cc1noc(C)c1S(=O)(=O)Nc1ccc2c(c1)C(=O)N([C@H](C)CO)C[C@H](C)[C@@H](CN(C)C(=O)Nc1ccccc1)O2 | 2% | -7% | 2%
N#Cc1ccccc1OCC(=O)OCC(=O)Nc1ccc2c(c1)OCO2 | -17% | -11% | -3%
COc1ccc(CN(C)C(=O)C2CSC3(C)CCC(=O)N23)cc1OC (stereo not drawn) | -20% | -5% | -4%
CCCN(CCC)CCNC(=O)C1c2ccccc2C(=O)N2CCc3ccccc3C12 (stereo not drawn) | -21% | -23% | 1%
CCCCOC(=O)Nc1nnc(Cc2ccc(Cl)cc2)s1 | -21% | -19% | 1%
O=C(O)c1ccc(OS(=O)(=O)c2cccc(C(F)(F)F)c2)cc1 | -5% | 6% | -2%
C[C@H](NC(=O)c1[nH]cnc1C(=O)N[C@H](C)c1ccccc1)c1ccccc1 | -11% | -2% | -5%
CCOCCCNC(=S)N1CCC(NC(=O)C2CCCCC2)CC1 | -7% | 4% | -1%

Additional entries
smiles | StopGo reporter | RE007 growth inh | SARS PLpro yeast
COCCN(CC(=O)Nc1cccc(C)c1C)C(=O)CN1C(=O)NC2(CCCCC2)C1=O | -15% | 8% | -6%
CCOP(=O)(OCC)C(Nc1ccc(OC)cc1)c1ccco1 (stereo not drawn) | -10% | 22% | 1%
O=C1/C(=C/c2ccncc2)CCC/C1=C\c1ccncc1 | 14µM* | ? | -34%
O=C(NCCN1CCOCC1)c1cccc(S(=O)(=O)Nc2ccc(Br)cc2)c1 | 30% | 6% | -2%
O=C(Nc1ccccc1)c1nc[nH]c1C(=O)NCCCCCCNC(=O)c1[nH]cnc1C(=O)Nc1ccccc1 | -9% | 3% | 2%
Cc1ccc(-c2nnc(Cc3ccc([N+](=O)[O-])cc3)o2)cc1 | 4% | 0% | -3%
O=C1C=C(c2cccc(Cl)c2)C[C@@H](c2ccc(Cl)cc2)C1 | -13% | -3% | -3%
COC(=O)[C@H](Cc1ccccc1)N(Cc1ccccc1)S(=O)(=O)N(Cc1ccccc1)[C@@H](Cc1ccccc1)C(=O)OC | ? | -6% | -1%
COCCN(C(=O)C1CCC1)c1c(N)n(CC(C)C)c(=O)[nH]c1=O | -8% | 0% | 8%
COc1ccc(/C=C/c2c(-c3ccc(OC)cc3)sc3cc(OC)c(OC)cc23)cc1 | -30% | 7% | -1%
CC(C)NC(=O)C12CC3CC(C1)CC(C(=O)NC(C)C)(C3)C2 | -6% | 2% | 0%
Cc1ccc(S(=O)(=O)N(CCC(=O)NCc2ccccc2F)c2ccccc2)cc1 | -3% | -13% | 4%
CCCCn1c(N)c(N(CCOC)C(=O)CSc2ccc([N+](=O)[O-])cc2)c(=O)[nH]c1=O | -14% | -7% | -4%
COCCN(Cc1ccccc1)C(=O)c1ccc(C(=O)c2ccccc2)cc1 | -8% | -10% | 0%
COc1ccc(C)c2sc(N(CCCN(C)C)C(=O)c3ccc(S(=O)(=O)N(C)C)cc3)nc12 | -9% | -15% | 1%

Brought forward from above: 2 compounds, followed by the next part.
The line under a structure holds: StopGo reporter, RE007 growth inh, SARS PLpro yeast
> COCCN(Cc1ccccc1)C(=O)c1ccc(C(=O)c2ccccc2)cc1
  -8%, -10%, 0%
> COc1ccc(C)c2sc(N(CCCN(C)C)C(=O)c3ccc(S(=O)(=O)N(C)C)cc3)nc12
  -9%, -15%, 1%
> COc1ccc(NC(=O)Nc2cccc3c2O[C@H](CN(C)S(C)(=O)=O)[C@@H](C)CN([C@H](C)CO)C3=O)cc1
  38%, 5%, -9%
> COc1cccc(/C=C/C(=O)OCC(=O)Nc2cccc(S(=O)(=O)NC3=NCCCCC3)c2)c1
  -17%, 6%, -1%
> CCCNC(=O)C(Cc1ccc(OC)cc1)NC(=O)c1ccc(C#N)cc1 (stereo not drawn)
  2%, -2%, -3%
> CCCCNc1c(-c2ccc(OC)c(Sc3ccc(OC)cc3)c2)nc2cnccn12
  ?, 1%, -2%
> N#Cc1ccc(OCC(=O)NNC(=S)NC2CCCCC2)cc1
  -6%, ?, -1%
> Cc1c(NC(=O)CSc2ccc3ccccc3n2)c(=O)n(-c2ccccc2)n1C
  -5%, 1%, -6%
> CCN(C[C@H]1N[C@@](Cc2ccccc2)(C(=O)OC)[C@H]2C(=O)N(C)C(=O)[C@@H]12)C(=O)COC
  -3%, 2%, -5%
> Cc1ccc(C)c(N2CCN(C(=O)CCc3nc(-c4cccc(Cl)c4)no3)CC2)c1
  47%[activator], -14%, -15%
> COC(=O)c1ccccc1S(=O)(=O)N1CCC(C(=O)OC(C)C(=O)Nc2ccccc2OC)CC1 (stereo not drawn)
  -12%, 4%, -1%
> CCc1sc(/C=C(/C#N)C(N)=S)cc1[N+](=O)[O-]
  -13%, -6%, -3%
> Nc1c(C(=O)CSc2nnc(Nc3ccc(F)cc3)s2)c(=O)[nH]c(=O)n1C1CC1
  -5%, 3%, -3%
> COc1cccc(NC(=O)NCCC2=CCCCC2)c1
  56%[activator], -6%, 0%
> CN(Cc1nc2ccccc2c(=O)[nH]1)C(=O)c1ccc(S(=O)(=O)N2CCCC2)cc1
  -13%, 4%, 9%
> CCCCN1CCS(=O)(=O)N(Cc2ccccc2Br)CC(C(=O)OC)C1 (stereo not drawn)
  -28%, -2%, -30%
> CCCN(C(=O)CCc1ccc(OC)cc1)c1c(N)n(Cc2ccccc2)c(=O)[nH]c1=O
  -17%, 12%, 2%
> O=C(NCc1ccc(F)cc1)C1CCCN(c2nc3ccsc3c(=O)s2)C1 (stereo not drawn)
  ?, 17%, -1%
> COc1ccc(CCNC(=O)COC(=O)C2CC2C)cc1OC (stereo not drawn)
  -7%, 16%, -4%
> COCCCNC(=O)CN1C(=O)/C(=C/c2ccccc2C)Sc2ccccc21
  -7%, 6%, 2%
> Cc1cccc2cc(C#N)c(NCc3ccccc3)nc12
  -23%, -1%, -17%
> CC1CN(C(=O)C(C)OC(=O)c2ccc3ncsc3c2)CC(C)O1 (stereo not drawn)
  -13%, 0%, -17%
> CN(C(=O)COC(=O)c1cc(S(=O)(=O)N2CCCCC2)ccc1Cl)c1ccccc1
  1%, 2%, 3%
> O=C(COC(=O)c1ccco1)NNC(=O)c1ccc(Cl)cc1
  27%, -15%, 1%
> CC[C@H](C)C(=O)N[C@H]1CCCN1C(=O)/C=C/c1ccccc1
  -14%, 16%, 10%
> O=C(Nc1ccc(N2CCOCC2)cc1)c1cccc(S(=O)(=O)N2CCOCC2)c1
  -7%, 25%, -3%
> O=C(COC(=O)COc1ccc(Cl)cc1)NC1CC1
  5%, -13%, 7%
> Fc1cccc(CCN2CCN=C2Nc2ccccc2)c1
  -8%, -4%, -12%
> O=C(CCCNC(=O)c1ccc(Cl)cc1)Nc1ccc(F)c(S(=O)(=O)N2CCOCC2)c1
  -9%, 4%, -1%
> COc1ccc(C(=O)Nc2ccc3nc(N4CCOCC4)sc3c2)cc1OC
  -9%, -13%, -6%

These rows are one share of the data; rates above refer to the full screens.
